# Compound activity (PubChem BioAssay)
# NS1 function inh: inhibitors of influenza NS1 protein function; Potency, µM (titrated, usually from 46.1 µM), for inactives: at the top dose activity, positive = more growth; S. cerevisiae slowed by influenza A NS1, growth recovery by OD600; AID 2326; 270,000 tested, 0.4% active; note: actives are rising curves; nearly all actives have a fitted effect of over 50% in size
#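 A cell-based growth assay was used: compounds that relieve NS1-induced slow growth of budding yeast raise OD600. Assay medium was yeast nitrogen base with ammonium sulphate and -URA supplement, pH 6.0, with 2% galactose.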
# LASV entry inh: inhibitors of Lassa virus binding or cell entry. Lassa virus pseudotype entry inhibition, cell reporter; control for the full effect not named in the record. Potency, µM (top dose mostly 37.9 µM), for the others: top-dose activity change, negative = inhibition, usual class: inhibitors. 300,000 tested, 1.2% active. AID 540256; active means well fitted inhibition curve with a large enough effect; inconclusive means small, poorly fitted or top-dose-only effect, or effect the other way; inactive means flat fitted curve, though single readings scatter; tested in HEK293 cells; note: % is set by controls: 0 for no effect and ±100 for the full control effect; nearly all actives have a fitted effect of over 50% in size; luciferase read-out
# RE007 growth inh: less growth of the S. pombe RE007 Vpr strain. 360,000 tested, 0.21% active. S. pombe RE007 Vpr strain, BacTiter-Glo ATP luminescence, 24 h; control for the full effect not named in the record. AID 651644. Potency, µM (doses to about 92.2 µM), for the others: at the highest dose activity change, negative = less growth; active = well fitted falling curve with a large enough effect; inconclusive = small, poorly fitted or top-dose-only effect; inactive = no such curve, though single readings can be large or run the other way;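 note: % is set by controls: 0 for no effect and ±100 for the full control effect; nearly all actives have a fitted effect of over 50% in size; the assay follows cell death caused by Vpr and the record does not say whether a fall means rescue or toxicity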
#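 Fission yeast RE007 carrying one integrated HIV-1 vpr copy, seeded at OD 0.01 in PMG+AL medium with 23 nL pinned compound. Grown 24 h at 30 degrees; viability read by BacTiter-Glo luminescence after 5 min.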
# MARV entry inh: inhibitors of Marburg virus binding or cell entry; Marburg virus pseudotyped entry inhibition, cell reporter; control for the full effect not named in the record; about a third of the inactives were read at about 46 µM; 300,000 tested, 1.8% active; Potency, µM (doses to about 37.8 µM), inactives show at the highest dose activity change, negative = inhibition, usual class: inhibitors; active = well fitted inhibition curve with a large enough effect; inconclusive = small, poorly fitted or top-dose-only effect, or effect the other way; inactive = flat fitted curve, though single readings scatter; tested in HEK293 cells; about a fifth of its hits are not listed in these tables; note: % is set by controls: 0 for no effect and ±100 for the full control effect; luciferase read-out
# Cruzain inh noDet: cruzain (T. cruzi) inhibition without detergent; purified cruzain, Z-FR-AMC fluorescence, no detergent; Potency, µM, inactives show max response, negative = inhibition, hits mostly inhibitors; 200,000 tested, 2.3% active; active = well fitted curve in the direction sought with a large enough effect; inconclusive = small, poorly fitted or top-dose-only effect, or another doubt; inactive = no such curve, though single readings can be large; an effect the other way counts as inactive or inconclusive;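 note: plate controls were enzyme without inhibitor for no effect and buffer without enzyme for full effect; nearly all actives have a fitted effect of over 40% in size; top concentration of the series not given in the record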
# Target sequence (P25779 123-467 limits assumed): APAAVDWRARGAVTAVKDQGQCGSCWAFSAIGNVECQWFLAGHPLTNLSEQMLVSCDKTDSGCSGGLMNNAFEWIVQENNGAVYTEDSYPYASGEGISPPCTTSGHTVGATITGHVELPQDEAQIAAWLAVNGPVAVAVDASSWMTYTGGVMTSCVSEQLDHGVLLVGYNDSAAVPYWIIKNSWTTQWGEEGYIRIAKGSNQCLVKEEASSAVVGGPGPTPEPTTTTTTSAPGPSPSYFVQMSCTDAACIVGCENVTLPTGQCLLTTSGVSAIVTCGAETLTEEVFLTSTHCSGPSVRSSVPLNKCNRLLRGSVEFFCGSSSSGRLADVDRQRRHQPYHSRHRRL
#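 Purified cruzain at 1.5 nM, pre-incubated 15 min with compound at room temperature in 100 mM sodium acetate pH 5.5, 5 mM DTT, 0.00005% Triton X-100. Reaction started with 2 uM Z-FR-AMC; AMC fluorescence increase over 60 s gives rate.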
# StopGo reporter: lowers the luciferase signal of an FMDV 2A StopGo reporter; human cells with a luciferase reporter of 2A StopGo recoding; control for the full effect not named in the record; 410,000 tested, 1.2% active; AID 1159524; Potency, µM (highest dose often 57.9 µM), without a hit: top-dose signal change, negative = less light; active = well fitted falling curve with a large enough effect; inconclusive = small, poorly fitted or top-dose-only effect; inactive = no such curve, though single readings can be large or run the other way; tested in HEK293T cells; note: % is set by controls: 0 for no effect and ±100 for the full control effect; nearly all actives have a fitted effect of over 45% in size; luciferase light after 4 h
# Cruzain Triton: cruzain (T. cruzi) inhibition with detergent. P25779. purified cruzain, Z-FR-AMC fluorescence, 0.01% Triton. Potency, µM, for the others: max response, negative = inhibition, most hits filed as inhibitors. 200,000 tested, 0.43% active. AID 1478; active = well fitted curve in the direction sought with a large enough effect; inconclusive = small, poorly fitted or top-dose-only effect, or another doubt; inactive = no such curve, though single readings can be large; an effect the other way counts as inactive or inconclusive;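 note: plate controls were neutral wells for no effect and buffer without enzyme for full effect; nearly all actives have a fitted effect of over 40% in size; top concentration of the series not given in the record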
#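 Read-out: AMC fluorescence (360 nm excitation, 450 nm emission), four reads over 2 min, first-to-third difference used. Conditions: cruzain 1.5 nM, Z-FR-AMC 2 uM, pH 5.5 acetate, 5 mM DTT, 0.01% Triton X-100.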
# SARS PLP yeast: SARS-CoV PLP inhibition in yeast | S. cerevisiae expressing SARS-CoV PLpro, growth rescue; control for the full effect not named in the record | AID 485353 | Potency, µM (doses to about 32.9 µM), without a hit: at the highest dose activity, positive = growth rescue | 330,000 tested, 0.19% active; note: 0% is about no effect; nearly all actives have a fitted effect of over 55% in size; growth read by luminescence after 48 h
# Starred values were filed as active, the others as inactive; ? = inconclusive; · = not tested or not shown; & = joins results of further samples; ! = not active in a repeat; [ ] = remark or other dose. Unless noted, calls come from the whole dose curve; as a rule, active means well fitted rising curve with a large enough effect; inconclusive means small, poorly fitted or top-dose-only effect; inactive means no such curve, though single readings can be large or run the other way. Potency is the fitted concentration of half-maximal effect.
SMILES,NS1 function inh,LASV entry inh,RE007 growth inh,MARV entry inh,Cruzain inh noDet,StopGo reporter,Cruzain Triton,SARS PLP yeast
Cn1c(N)c(C(=O)CSc2nnc3n2CCCCC3)c(=O)n(C)c1=O,·,6.5%,12.0%,-5.2%,·,-0.5%,·,-5.3%
Cc1ccc(OCCC(=O)OCC(=O)Nc2c(C)nn(-c3ccccc3)c2C)cc1,·,3.3%,4.8%,2.2%,·,-9.6%,·,-6.1%
COc1cc(NC(=O)Cn2c(=O)n(CC(=O)NCCc3ccc(OC)c(OC)c3)c(=O)c3sccc32)cc(OC)c1,·,1.8%[46.1 µM],·,-20.0%[46.1 µM],20.9%,-17.9%,-3.6%,·
O=C(NC1CCCCC1)c1ccc(S(=O)(=O)N2CCCCC2)cc1,-5.6%,2.06µM*,-0.9%,3.4%,-1.0%,-8.8%,-1.2%,7.0%
O=C(Nc1ccccc1N1CCN(C(=O)c2ccccc2)CC1)c1ccco1,-11.4%,-0.9%,2.2%,?,·,-23.9%,·,-8.8%
Cc1cc(C)c(NC(=O)CNC(=O)c2ccccc2OCc2c(C)noc2C)c(C)c1,·,-22.8%,-5.7%,?,·,11.2%,·,3.4%
COC(=O)c1cc(NC(=O)c2ccc(F)cc2)cc(C(=O)OC)c1,-6.9%,-8.6%,7.7%,-9.5%[46.1 µM],·,-6.0%,·,-1.3%
NS(=O)(=O)c1ccc(NC(=O)COC(=O)C2(c3ccccc3F)CCCC2)cc1,-0.6%,?,0.5%,-5.0%,-2.8%,?,-10.8%,-13.2%
COc1ccc(-c2csc(N(CC(C)C)C(=O)c3ccco3)n2)cc1,-1.2%,-50.7%[46.1 µM],10.4%,?,·,-13.1%,·,-6.2%
Cn1nccc1C(=O)Nc1ccccc1C(=O)O,1.7%,22.7%,-16.8%,23.4%&23.4%[46.1 µM],-13.9%,33.0%[activator],3.6%,0.3%
Cc1ccc(NC(=O)N2CC3CCCN3c3ccccc32)cc1Cl (stereo not given),·,6.3%[46.1 µM],·,·,31.6µM*,-18.6%,-16.4%,·
CCOC(=O)CSc1nnc(CNC(=O)c2ccccc2OC)n1-c1ccc(OC)cc1,0.5%,24.9%,13.5%,-0.2%,2.3%,36.0%,0.0%,-3.9%
CC(CCCC(C)(C)O)CC1C2=C(CCCC2=O)OC2=C1C(=O)CCC2 (stereo not given),·,-26.2%,0.8%,6.1%,·,-1.2%,·,-5.4%
COc1ccc(NC(=O)CN2C(=O)NC3(CCCC3)C2=O)cc1Cl,5.4%,-8.3%,19.7%,1.0%,·,1.2%,·,6.6%
Cc1cccc(N2CCN(C(=O)c3cc4c(=O)n(C)c5ccccc5c4s3)CC2)c1C,·,29.6%[46.1 µM],·,-1.5%[46.1 µM],-1.8%,-0.7%,-0.9%,·
FC(F)Oc1ccccc1/C=N/n1cnc2ccccc21,·,8.1%,-3.4%,?,·,28.0%,·,-12.3%
COc1cc(C(=O)Nc2ccc3[nH]c(=O)sc3c2)cc(OC)c1OC,·,-3.7%[46.1 µM],·,10.5%[46.1 µM],-7.1%,-3.4%,-2.0%,·
COc1cccc(OCC(O)CN2CCN(c3ccc(F)cc3)CC2)c1 (stereo not given),7.1%,·,-9.6%,·,·,-15.0%,·,2.0%
Cc1cccc(OCCCc2c(C)n[nH]c2C)c1,-54.2%,-29.7%,-5.9%,?,-6.7%,-20.2%,4.1%,20.5%
CC(C)CC(=O)NS(=O)(=O)c1ccc(NC(=O)c2ccco2)cc1,2.6%,-13.3%,-4.6%,9.9%[46.1 µM],·,-11.3%,·,0.2%
NC(=O)C1CCN(C(=O)c2ccc(F)c(S(=O)(=O)N3CCOCC3)c2)CC1,·,2.3%,0.4%,1.4%,·,0.6%,·,2.0%
COc1ccc(NC(=O)c2c(NC(=O)COc3ccccc3)sc3c2CCC(C)C3)cc1 (stereo not given),·,12.2%[46.1 µM],·,?,-9.7%,-14.8%,3.5%,·
COc1ccccc1C(=O)N1CCC(N2CCN(c3ccccc3OC)CC2)CC1,6.5%,9.6%,-4.0%,0.8%,·,-2.3%,·,0.0%
C=C(C)COc1ccc(-c2[nH]ncc2Oc2ccc(OC)cc2)c(O)c1,-64.6%,·,?,·,·,23.3%,·,-19.0%
CC(=O)c1ccc(N2CCN(S(=O)(=O)c3ccc(-c4cnc(C5CC5)o4)cc3)CC2)cc1,6.1%,10.6%[46.1 µM],19.9%,·,3.1%,31.6µM*!,-0.9%,-1.1%
O=C(NC1=NCCS1)c1ccc(C(F)(F)F)cc1,-2.3%,·,-26.8%,·,·,33.0%[activator],·,-2.2%
CCOCCCNCc1ccc(OCCC(C)C)c(OC)c1,·,-18.1%,-0.1%,-23.7%[46.1 µM],·,-18.5%,·,-3.4%
NCC/C=C1/c2ccccc2CSc2ccccc21,-2.2%,-13.1%,4.6%,?,-5.6%,-23.2%,-1.0%,-11.5%
CC(C)c1ccc(NC(=O)CCS(=O)(=O)c2ccc(Br)s2)cc1,·,0.3%[46.1 µM],·,-22.0%[46.1 µM],2.3%,-27.3%,-3.4%,·
COc1ccc(C(=O)C2CCN(C(=O)c3ccc(F)cc3)CC2)cc1,6.1%,3.8%,-14.3%,-20.1%,·,-29.2%,·,-5.7%
CN(C(=O)CSc1nnc(-c2ccccc2F)o1)C1CCCCC1,·,28.7%[46.1 µM],·,1.3%[46.1 µM],-10.2%,50.6%[activator],0.6%,·
Cc1ccc(N2CC(C(=O)Nc3ccc(S(=O)(=O)Nc4nccs4)cc3)CC2=O)cc1C (stereo not given),-9.9%,13.4%,2.0%,4.7%,·,0.4%,·,1.3%
Cc1ccc(NC(=S)NCCc2ccc(Cl)cc2)c(C)c1,-44.7%,4.6%,1.3%,-20.5%,·,30.6%[activator],·,?
O=C(c1ccc(Cl)cc1)N1CCN(C(=O)C2CCCCC2)CC1,9.4%,1.1%,3.9%,-0.7%[46.1 µM],·,-4.9%,·,11.8%
Cc1ccc(-n2ncc3c2CC(C)(C)CC3NC(=O)c2c(C)noc2C)cc1 (stereo not given),-0.6%,?,4.4%,-19.5%,·,-22.1%,·,4.6%
CC(=O)Nc1cccc(NC(=O)CSc2nnc3ccc(-c4cccnc4)nn23)c1,·,22.8%,10.6%,1.8%[46.1 µM],·,-2.5%,·,5.2%
CS(=O)(=O)N(CCc1ccccc1)CC(=O)NCc1ccccc1Cl,0.6%,13.8%[46.1 µM],-2.0%,5.9%,·,21.1%,·,-0.2%
CCc1ccccc1NC(=S)N(CCN(C)C)Cc1cccs1,·,12.7%,-4.8%,9.0%[46.1 µM],·,12.7%,·,-0.9%
COc1ccc2c(c1)c(=O)c(S(=O)(=O)c1ccccc1)cn2CC(=O)Nc1ccc(C)c(Cl)c1,·,8.7%[46.1 µM],·,-9.1%[46.1 µM],20µM*,23.3%,-4.7%,·
Cc1onc(-c2c(Cl)cccc2Cl)c1C(=O)NCC1CCCO1 (stereo not given),0.6%,1.7%,-3.6%,8.6%,3.9%,·,0.1%,-0.5%
O=C(Cn1nnc(-c2ccccc2F)n1)NCCc1ccccc1,-13.0%,·,0.1%,·,7.3%,-3.0%,-0.1%,-8.6%
Cc1ccc2nc3c(c(C(=O)OCC(=O)N(C)C4CCS(=O)(=O)C4)c2c1)CCCC3 (stereo not given),·,-0.4%,-14.0%,13.4%[46.1 µM],·,-12.6%,·,2.5%
COc1ccccc1C(=O)NCCC(=O)NCC(c1ccco1)N1CCCCC1 (stereo not given),·,-2.6%,-9.2%,0.9%,·,-25.7%,·,3.4%
Cc1cc(/C=C(\C#N)C(=O)NCc2ccco2)c(C)n1C1CCCC1,-10.4%,7.7%,1.3%,6.3%,-12.4%,36.1%[activator],-11.8%,-20.2%
CCn1c(SCC(=O)Nc2ccc(C)cc2)nc2nc3c(cc2c1=O)COC(C)(C)C3,1.9%,-3.3%[46.1 µM],-1.8%,8.5%[46.1 µM],·,11.0%,·,0.7%
CC1=NN(C(C#N)c2c(C)nn(Cc3ccccc3)c2C)C(C)(C)C1 (stereo not given),3.4%,·,0.9%,·,·,-6.3%,·,-0.4%
COc1ccc(/C=N/NC(=O)Cn2c(Cc3ccc(OC)c(OC)c3)nc3ccccc32)cc1OC,-7.4%,-2.8%,4.0%,?,6.7%,-8.4%,-4.9%,-25.8%
COc1ccc(Cc2nnc(N/N=C/c3ccc(N(C)C)cc3)[nH]c2=O)cc1OC,1.6%,8.7%,2.1%,2.4%[46.1 µM],·,-10.9%,·,0.9%
Fc1cccc(NC(=S)N2CCCC2)c1,-3.3%,0.7%,4.1%,17.3%[46.1 µM],-11.6%,-1.7%,-2.1%,-8.3%
Cc1ccc(-c2noc(CN(C(=O)C(c3ccccc3)c3ccccc3)C(C)C)n2)cc1,13.2%,?,4.8%,?,-1.1%,-26.3%,-1.0%,24.3%
O=C(COC(=O)c1ccc2c(=O)n3c(nc2c1)CCC3)Nc1ccc(OC(F)F)cc1,6.4%,-20.7%[46.1 µM],-4.3%,-23.9%[46.1 µM],·,-5.7%,·,-4.2%
CCCCCC(=O)N1CCCC(c2nc(-c3ccc(OC)cc3)no2)C1 (stereo not given),-8.1%,0.6%,-10.0%,?,5.7%,-19.6%,-7.0%,5.1%
COc1ccc(-c2n[nH]c(=S)n2-c2ccc3c(c2)OCCO3)cc1OC,9.5%,0.6%,4.5%,12.1%,·,50.3%[activator],·,1.6%
CC(C)C(C(=O)Nc1ccc(S(=O)(=O)N2CCOCC2)cc1)N1C(=O)c2ccccc2C1=O (stereo not given),-8.3%,5.8%,-3.4%,4.4%,?,-19.0%,-0.5%,2.6%
Cc1cc(C)c(-n2c(SCc3nc4ccccc4s3)n[nH]c2=O)c(C)c1,-2.2%,?,4.4%,?,·,35.5µM*,·,-6.4%
Cc1oc(-c2cccc(F)c2)nc1CN1CCCN(C(=O)c2ccco2)CC1,11.0%,·,1.1%,·,·,2.3%,·,?
CC1CCCCN1CC(=O)Nc1ccc(Oc2ccccc2)cc1 (stereo not given),-57.2%,?,-4.4%,?,10.5%,-7.5%,-11.2%,4.3%
